High-throughput results (PubChem BioAssay)
PABP polyA inh = PABP poly(A) RNA binding inhibitors, primary screen, biochemical, fluorescence polarization, uHTS | actives 1% (n = 290,000) | AID 2014, 2009 | inhibition, % at 35 µM;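 active = 50% or more with normal probe brightness, or confirmed in later tests; about a fifth of its hits are not listed in these tables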;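 also: calls also rest on retests at 20 µM and on dose response follow-up; controls were probe without protein and protein plus probe with vehicle; some compounds called inactive have numbers as strong as hits; many hits fall short of the cut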
Target sequence (P11940 whole entry, looked up): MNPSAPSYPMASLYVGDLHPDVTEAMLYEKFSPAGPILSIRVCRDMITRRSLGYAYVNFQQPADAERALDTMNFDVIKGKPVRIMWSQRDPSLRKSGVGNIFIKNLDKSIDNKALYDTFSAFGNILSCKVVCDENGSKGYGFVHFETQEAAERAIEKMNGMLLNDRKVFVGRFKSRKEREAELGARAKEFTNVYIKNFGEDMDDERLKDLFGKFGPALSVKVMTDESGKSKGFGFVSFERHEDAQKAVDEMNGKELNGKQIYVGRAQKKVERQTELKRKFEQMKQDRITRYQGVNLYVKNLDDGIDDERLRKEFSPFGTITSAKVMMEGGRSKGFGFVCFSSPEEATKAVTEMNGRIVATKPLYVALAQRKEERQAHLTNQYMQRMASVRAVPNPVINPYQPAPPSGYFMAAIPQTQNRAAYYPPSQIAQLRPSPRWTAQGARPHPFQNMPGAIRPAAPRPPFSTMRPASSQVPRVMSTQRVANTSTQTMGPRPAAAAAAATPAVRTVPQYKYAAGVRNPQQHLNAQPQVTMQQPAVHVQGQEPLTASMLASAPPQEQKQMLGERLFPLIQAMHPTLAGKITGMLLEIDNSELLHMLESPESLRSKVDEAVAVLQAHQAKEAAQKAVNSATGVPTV
MT1-MMP act inh = blockers of MT1-MMP proenzyme processing, primary screen, HT1080 RFP-PRO-GFP cells, GFP/RFP fluorescence; GFP/RFP ratio change, % at 20 µM; GFP/RFP ratio fluorescence, overnight; percent of plate control window, DMSO zero; Matrix metalloproteinase-14 (Homo sapiens), P50281; actives 0.061% (n = 360,000);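 active = GFP/RFP ratio change of at least 30% with cell ATP level not reduced by more than half and red fluorescence within 50% of control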; also: strong numbers were not always called active
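Read-out: GFP/RFP fluorescence ratio; Test system: RFP-PRO-GFP reporter HT1080 cells; Compound dosing: single-point 20 µM compound, 1% DMSO; Times: overnight compound exposure at 37 °C.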
eIF4H inh = human eIF4H binding inhibitors, primary screen, translation initiation inhibitor project, biochemical, uHTS, fluorescence polarization; Eukaryotic translation initiation factor 4H (Homo sapiens), Q15056; actives 0.94% (n = 290,000); eIF4H fluorescence polarization binding assay; inhibition, % at 35 µM; AID 2012, 2009;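 active = 50% or more with normal probe brightness, or confirmed in later tests; about a fifth of its hits are not listed in these tables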;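 also: calls also rest on retests at 20 µM and on dose response follow-up; 0% = protein and probe with vehicle and 100% = probe without protein; strong numbers were not always called active; many hits fall short of the cut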
UUG fidelity = modulators of yeast start codon fidelity, primary screen, whole organism, S. cerevisiae, single point, plate reader; actives 0.13% (n = 350,000); S. cerevisiae UUG-firefly luciferase reporter, luminescence/redox ratio; AID 602363, 2012; activity score, % at 18.7 µM;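 active = replicate mean at a twofold rise or more, about +100% in these data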;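 also: firefly luciferase made from a UUG start codon reports start codon fidelity; reporter light over untreated wells divided by growth signal over untreated wells; some hits fall short of that in this replicate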
Env fusion inh = inhibitors of HIV-1 Env-driven cell-cell fusion, primary screen, HeLa-JRFL effector, CEM21 target cells, luciferase; inhibition, % at 12.3 µM; actives 1.1% (n = 360,000); AID 651610, 2012;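 active = mean replicate inhibition score of at least 50 and every replicate individually at or above 50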;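 also: 0% = plate neutral controls and 100% = maraviroc near 300 nM; one replicate is shown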
CSC inhib = cancer stem cell viability inhibitors, primary screen, luminescence; cancer stem cell-like cells viability; inhibition, % at 7.5 µM; actives 1.1% (n = 300,000);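 active = mean at 75% or more and at least half the replicates too; tested in HMLE shEcad cells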;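 also: 0% = median of negative and 100% = median of positive control wells; the first replicate is given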
Rce1 inh = yeast Rce1p protease inhibitors, primary screen, biochemical, fluorescence, cell-free homogeneous | CAAX prenyl protease 2 (Saccharomyces cerevisiae (strain ATCC 204508 / S288c)), Q03530 | yeast membranes, quenched prenylated peptide cleavage fluorescence | calls only | actives 0.27% (n = 290,000);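 active = fall in fluorescence gain of 50% or more versus controls, with final raw signal at or below 3038400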;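 also: plate controls were neutral control wells for no effect and wells lacking membranes for full effect; tested at 10 µM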
eIF4H inh retest = second read-out of eIF4H inh, no call of its own (marks repeat the call); inhibition, %; compound at 20 µM; confirmation average;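 mean of two retest wells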
PABP polyA inh retest = also measured in PABP polyA inh; calls as there; inhibition, %; compound at 20 µM; confirmation repeats;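 mean of two retest wells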
MT1-MMP act inh RFP = further read-out of MT1-MMP act inh, marked with its call; RFP signal change, %; measured here: RFP expression control read;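 0 = vehicle wells; hits needed this value within 50% of zero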
Active calls of the source: *.

How did COc1ccc(NC(=O)C2CCCN(c3nn4c(=O)cc(C)nc4s3)C2)cc1 (stereo unspecified) do in these assays?
PABP polyA inh: -7; MT1-MMP act inh: -1; eIF4H inh: 4; UUG fidelity: -18; CSC inhib: 5; Rce1 inh: inactive; MT1-MMP act inh RFP: 4

What do the screens show for `Cc1cccc(OCC(=O)Nc2ccccc2N2CCCCC2)c1C`?
MT1-MMP act inh: 8; Env fusion inh: 13; CSC inhib: -7; Rce1 inh: inactive; MT1-MMP act inh RFP: -6

How did CC(Sc1ccc2c(c1)OCCO2)C(=O)Nc1ccc2c(c1)OCO2 (stereo unspecified) do in these assays?
PABP polyA inh: 10; MT1-MMP act inh: -4; eIF4H inh: 7; UUG fidelity: 0; Env fusion inh: 1; CSC inhib: -3; Rce1 inh: inactive; MT1-MMP act inh RFP: -2

How did COc1cc(C(=S)N2CCOCC2)cc(OC)c1O do in these assays?
PABP polyA inh: 8; MT1-MMP act inh: 0; eIF4H inh: 0; UUG fidelity: -22; Env fusion inh: -2; CSC inhib: -15; Rce1 inh: inactive; MT1-MMP act inh RFP: 1

Results for CCn1c(=O)c(=O)[nH]c2cc(C(=O)NCc3ccc(F)cc3)ccc21 ?
PABP polyA inh: -14; MT1-MMP act inh: 8; eIF4H inh: 4; UUG fidelity: -3; Env fusion inh: -3; CSC inhib: -11; MT1-MMP act inh RFP: 3

Results for CC1CCCCC1NC(=O)CCn1c(=O)oc2ccccc21 (stereo unspecified) ?
PABP polyA inh: -4; MT1-MMP act inh: 6; eIF4H inh: -3; UUG fidelity: -21; CSC inhib: -6; Rce1 inh: inactive; MT1-MMP act inh RFP: 8

What do the screens show for `CC(=O)N(C)c1ccc(NC(=O)N2CCOCC2)cc1`?
PABP polyA inh: 6; MT1-MMP act inh: 2; eIF4H inh: 10; UUG fidelity: -6; Env fusion inh: 0; CSC inhib: -9; Rce1 inh: inactive; MT1-MMP act inh RFP: 3

Results for CN(C(=O)c1ccc2c(c1)OCCO2)c1c(N)n(Cc2ccccc2)c(=O)[nH]c1=O ?
MT1-MMP act inh: 0; UUG fidelity: -19; Env fusion inh: -3; CSC inhib: -9; Rce1 inh: inactive; MT1-MMP act inh RFP: 2

Results for O=C(COC(=O)C1=NN(c2ccccc2)C(=O)CC1)Nc1nc(-c2ccc(F)cc2)cs1 ?
MT1-MMP act inh: 2; UUG fidelity: -9; Env fusion inh: -38; CSC inhib: -4; MT1-MMP act inh RFP: -2

What do the screens show for `Cc1cccc(NC(=O)CNC(=O)c2ccc3nc[nH]c3c2)c1C`?
MT1-MMP act inh: -3; UUG fidelity: -30; Env fusion inh: -16; CSC inhib: -17; Rce1 inh: inactive; MT1-MMP act inh RFP: 2

Results for O=C(NCCCN1CCCC1=O)C(=O)NCC1OCCN1S(=O)(=O)c1ccc(Br)cc1 (stereo unspecified) ?
PABP polyA inh: 27; MT1-MMP act inh: -3; eIF4H inh: 6; UUG fidelity: -10; Env fusion inh: 18; CSC inhib: -20; Rce1 inh: inactive; MT1-MMP act inh RFP: -1

How did COc1ccccc1NS(=O)(=O)c1cc(C(=O)N2CCN(C(=O)c3ccco3)CC2)ccc1F do in these assays?
MT1-MMP act inh: 1; UUG fidelity: 2; Env fusion inh: 6; MT1-MMP act inh RFP: 4

How did CC(C)c1nnc(NC(=O)CCC(=O)N2CCN(c3cccc(Cl)c3)CC2)s1 do in these assays?
PABP polyA inh: 19; MT1-MMP act inh: 3; eIF4H inh: 8; UUG fidelity: -5; Env fusion inh: 7; CSC inhib: -1; Rce1 inh: inactive; MT1-MMP act inh RFP: 2

How did CNS(=O)(=O)c1cccc(C(=O)OCCCOC(=O)c2cccc(S(=O)(=O)NC)c2)c1 do in these assays?
PABP polyA inh: 6; MT1-MMP act inh: 0; eIF4H inh: 14; UUG fidelity: -13; CSC inhib: 6; Rce1 inh: inactive; MT1-MMP act inh RFP: -7

Results for CSc1cccc(NC(=O)/C=C/c2cccc(Cl)c2)c1 ?
PABP polyA inh: -5; MT1-MMP act inh: 2; eIF4H inh: -1; UUG fidelity: -13; Env fusion inh: -35; Rce1 inh: inactive; MT1-MMP act inh RFP: -6

What do the screens show for `CN(C(=O)COC(=O)c1ccc(S(=O)(=O)N2CCOCC2)cc1)C1CCCCC1`?
PABP polyA inh: -9; MT1-MMP act inh: 6; eIF4H inh: -5; Env fusion inh: 6; CSC inhib: -7; Rce1 inh: inactive; MT1-MMP act inh RFP: 4

Results for C=CCC(C=C)[N+]1(CC(=O)OC)CCCCC1 (stereo unspecified) ?
PABP polyA inh: 30; MT1-MMP act inh: -3; eIF4H inh: -13; Env fusion inh: -5; CSC inhib: -10; Rce1 inh: inactive; MT1-MMP act inh RFP: 0

What do the screens show for `CCOc1ccc(-n2nc3c(=O)n(CCN4CCCCC4)nc(C)c3c2C)cc1`?
PABP polyA inh: 4; MT1-MMP act inh: -3; eIF4H inh: -6; Env fusion inh: -11; CSC inhib: 37; Rce1 inh: inactive; MT1-MMP act inh RFP: 3

Results for O=C(OCC(=O)N1CCCC1)c1c(Cl)ccc(Cl)c1Cl ?
PABP polyA inh: 15; MT1-MMP act inh: 2; eIF4H inh: -1; UUG fidelity: -5; Env fusion inh: -2; CSC inhib: -8; Rce1 inh: inactive; MT1-MMP act inh RFP: 0

How did CCOc1ccc(CCNC(=O)c2ccc(C)c(N3CCCC3=O)c2)cc1OCC do in these assays?
PABP polyA inh: -4; MT1-MMP act inh: 2; eIF4H inh: 0; Env fusion inh: -3; CSC inhib: -11; Rce1 inh: inactive; MT1-MMP act inh RFP: 2

Results for CCCNC(=O)c1ccc(N(Cc2ccccc2)S(C)(=O)=O)cc1 ?
PABP polyA inh: -6; MT1-MMP act inh: 0; eIF4H inh: -10; UUG fidelity: -5; CSC inhib: -6; Rce1 inh: inactive; MT1-MMP act inh RFP: -1

Results for Nc1cc(-c2ccc(Br)cc2)[nH]n1 ?
PABP polyA inh: 6; MT1-MMP act inh: -4; eIF4H inh: 2; UUG fidelity: -21; Env fusion inh: 20; CSC inhib: 3; Rce1 inh: inactive; MT1-MMP act inh RFP: -6

How did Cc1cccc(NC(=S)N(c2ccccc2)C(C)C)c1C do in these assays?
PABP polyA inh: 14; MT1-MMP act inh: 1; eIF4H inh: 4; Env fusion inh: 4; CSC inhib: 4; Rce1 inh: inactive; MT1-MMP act inh RFP: -1

What do the screens show for `CNC(=S)N(C)/N=C1/C(=O)N(Cc2c(Cl)cccc2Cl)c2ccccc21`?
MT1-MMP act inh: -2; UUG fidelity: -12; Env fusion inh: 12; CSC inhib: 23; MT1-MMP act inh RFP: -3

How did CCOC(=O)c1ccc(N2C(=O)c3n[nH]c(C)c3C2c2ccco2)cc1 (stereo unspecified) do in these assays?
PABP polyA inh: -10; MT1-MMP act inh: 4; eIF4H inh: -7; UUG fidelity: -12; CSC inhib: 1; Rce1 inh: inactive; MT1-MMP act inh RFP: -3

Results for C/C(=N\Nc1ccccc1)c1c(O)cc(C)oc1=O ?
PABP polyA inh: -6; MT1-MMP act inh: -7; eIF4H inh: 4; Env fusion inh: 1; CSC inhib: -9; Rce1 inh: inactive; MT1-MMP act inh RFP: -1

What do the screens show for `CCOc1ncccc1C(=O)Nc1ccc(OC)c(S(=O)(=O)N2CCCCC2)c1`?
PABP polyA inh: -6; MT1-MMP act inh: 7; eIF4H inh: -3; UUG fidelity: -19; Env fusion inh: 16; CSC inhib: -2; Rce1 inh: inactive; MT1-MMP act inh RFP: 4

How did Cc1cccc(CSc2nncc(=O)[nH]2)c1 do in these assays?
PABP polyA inh: 29; MT1-MMP act inh: -2; eIF4H inh: 2; UUG fidelity: -5; CSC inhib: -2; Rce1 inh: inactive; MT1-MMP act inh RFP: 4

Results for Cc1cc(O)cc2c1C(=O)/C(=C/c1ccco1)O2 ?
PABP polyA inh: 43*; MT1-MMP act inh: -28; eIF4H inh: 61*; Env fusion inh: -44; CSC inhib: -9; Rce1 inh: inactive; eIF4H inh retest: 84*; PABP polyA inh retest: 69*; MT1-MMP act inh RFP: 5

How did O=C(CN1C(=O)CC(c2ccco2)Sc2ccccc21)NCc1ccc2c(c1)OCO2 (stereo unspecified) do in these assays?
PABP polyA inh: -8; MT1-MMP act inh: 4; eIF4H inh: 6; CSC inhib: -26; Rce1 inh: inactive; MT1-MMP act inh RFP: -2

Results for CSCCC1NC2(C(=O)Nc3c(C)cc(Cl)cc32)[C@@H]2C(=O)N(C3CCCC3)C(=O)[C@H]12 (stereo partly specified) ?
PABP polyA inh: 3; MT1-MMP act inh: -3; eIF4H inh: 4; UUG fidelity: -19; Env fusion inh: -30; CSC inhib: 1; Rce1 inh: inactive; MT1-MMP act inh RFP: -3

How did C=CCn1c(COc2cccc3ccc(C)nc23)nnc1SCC(=O)O do in these assays?
PABP polyA inh: 0; MT1-MMP act inh: -1; eIF4H inh: -3; UUG fidelity: -11; Env fusion inh: -35; CSC inhib: -8; Rce1 inh: inactive; MT1-MMP act inh RFP: 3

What do the screens show for `COc1cc(Br)c(CCNC(=O)Cc2ccccc2)cc1OC`?
PABP polyA inh: 3; MT1-MMP act inh: 4; eIF4H inh: 13; Env fusion inh: 9; CSC inhib: -2; Rce1 inh: inactive; MT1-MMP act inh RFP: 5

Results for O=C(CSC(=S)N1CCOCC1)c1cc2ccccc2oc1=O ?
PABP polyA inh: -1; MT1-MMP act inh: 4; eIF4H inh: 2; UUG fidelity: -9; CSC inhib: 3; Rce1 inh: inactive; MT1-MMP act inh RFP: 2

How did Cc1c(Cl)cccc1NC(=S)N1CCC(C(N)=O)(N2CCCCC2)CC1 do in these assays?
PABP polyA inh: 2; MT1-MMP act inh: 1; eIF4H inh: 3; Env fusion inh: 11; CSC inhib: 6; MT1-MMP act inh RFP: 2

What do the screens show for `C=CCNC(=O)CSc1n[nH]c(-c2cc(Cl)ccc2OC)n1`?
PABP polyA inh: -8; MT1-MMP act inh: -1; eIF4H inh: 6; UUG fidelity: -22; Env fusion inh: 8; CSC inhib: -5; Rce1 inh: inactive; MT1-MMP act inh RFP: -4

What do the screens show for `CC1(C(=O)Nc2ccc(F)c(Cl)c2)Cc2c(-c3cccc(C(F)(F)F)c3)ccnc2O1` (stereo unspecified)?
MT1-MMP act inh: -3; UUG fidelity: 7; Env fusion inh: 6; MT1-MMP act inh RFP: 2

Grouped by structure: those above containing a furan ring, fused or not (4)
How did COc1ccccc1NS(=O)(=O)c1cc(C(=O)N2CCN(C(=O)c3ccco3)CC2)ccc1F do in these assays?
MT1-MMP act inh: 1; UUG fidelity: 2; Env fusion inh: 6; MT1-MMP act inh RFP: 4

How did CCOC(=O)c1ccc(N2C(=O)c3n[nH]c(C)c3C2c2ccco2)cc1 (stereo unspecified) do in these assays?
PABP polyA inh: -10; MT1-MMP act inh: 4; eIF4H inh: -7; UUG fidelity: -12; CSC inhib: 1; Rce1 inh: inactive; MT1-MMP act inh RFP: -3

Results for Cc1cc(O)cc2c1C(=O)/C(=C/c1ccco1)O2 ?
PABP polyA inh: 43*; MT1-MMP act inh: -28; eIF4H inh: 61*; Env fusion inh: -44; CSC inhib: -9; Rce1 inh: inactive; eIF4H inh retest: 84*; PABP polyA inh retest: 69*; MT1-MMP act inh RFP: 5

How did O=C(CN1C(=O)CC(c2ccco2)Sc2ccccc21)NCc1ccc2c(c1)OCO2 (stereo unspecified) do in these assays?
PABP polyA inh: -8; MT1-MMP act inh: 4; eIF4H inh: 6; CSC inhib: -26; Rce1 inh: inactive; MT1-MMP act inh RFP: -2
